# Bioassay records as filed in PubChem BioAssay.
# Vaccinia Venus – inhibitors of vaccinia virus (Venus reporter); Vaccinia virus Venus reporter expression, fluorescence; Potency, µM (top dose mostly 36.5 µM), inactives show top-dose activity change, negative = inhibition, most hits filed as inhibitors; 0.46% of 330,000 active; active means well fitted inhibition curve with a large enough effect; inconclusive means small, poorly fitted or top-dose-only effect; inactive means no such curve, though single readings can be large or run the other way; tested in A549 cells; note: nearly all actives have a fitted effect of over 30% in size; inactives centre near -10
# VACV mCherry inh – vaccinia inhibition (mCherry reporter); Vaccinia virus mCherry reporter infection, fluorescence; about a quarter of the inactives have no number; Potency, µM (series often up to 36.5 µM), without a hit: at the highest dose activity change, negative = inhibition, actives largely listed as inhibitors; 0.63% of 310,000 active; active = well fitted inhibition curve with a large enough effect; inconclusive = small, poorly fitted or top-dose-only effect; inactive = no such curve, though single readings can be large or run the other way; tested in A549 cells; note: nearly all actives have a fitted effect of over 35% in size; inactives centre near -10
# * hit, by the source's call; i = inactive; ? = inconclusive; nt = no result given; & = joins results of further samples; ! = not active in a repeat; [ ] = remark or other dose. % is set by controls: 0 for no effect and ±100 for the full control effect; potency is the fitted concentration of half-maximal effect.
# Start of the listing, in advance (3 entries):
1	O=S(=O)(c1ccccc1)N(CC(F)(F)F)c1ccc(C(O)(C(F)(F)F)C(F)(F)F)cc1
2	c1ccc(CNC2=NCCCCC2)cc1
3	O=C1/C(=C/c2cccnc2)CC/C1=C\c1cccnc1

screen / no. | 1 | 2 | 3
VACV mCherry inh | ? | -19% | -5%
Vaccinia Venus | 11µM*! | -2% | -10%

# The whole of this part (from the top)
1	O=S(=O)(c1ccccc1)N(CC(F)(F)F)c1ccc(C(O)(C(F)(F)F)C(F)(F)F)cc1
2	c1ccc(CNC2=NCCCCC2)cc1
3	O=C1/C(=C/c2cccnc2)CC/C1=C\c1cccnc1
4	Cc1cc(C)nc(Nc2n[nH]c(-c3ccccc3Br)n2)n1
5	CCOC(=O)N1CCC(NC(=O)CSCc2cnn(-c3ccccc3)c2-n2cccc2)CC1
6	O=C(CSCc1c(Cl)cccc1Cl)Nc1ccc2c(c1)OCCO2
7	CCC1(CC)Cc2ccccc2C(=O)N1
8	O=C(Nc1cccnc1)c1scc2c1OCCO2

screen / no. | 1 | 2 | 3 | 4 | 5 | 6 | 7 | 8
VACV mCherry inh | ? | -19% | -5% | i | nt | -5% | i[7.34 µM] | -13%
Vaccinia Venus | 11µM*! | -2% | -10% | -12% | -21% | -16% | 1%[7.34 µM] | -12%

9	C[C@@H]1COC(=O)[C@H](CC(=O)OC(C)(C)C)C/C=C\C[C@@H](CC(=O)NCCO)C(=O)N1
10	COc1cc(OC)cc(C(=O)NCC(=O)OCC(=O)c2cc(C)n(Cc3ccco3)c2C)c1
11	CCOc1ccc(N2CC(C(=O)Nc3ccc(S(=O)(=O)NCC4CCCO4)cc3)CC2=O)cc1 (centres undefined)
12	CCOCCCNC(=O)c1ccc2c(=O)n(CCCOCC)c(=S)[nH]c2c1
13	COCCCNC(=O)c1ccc(NC(C)=O)cc1
14	CCCCCCCCCCCCN1[C@@H](CC(=O)O)c2cc(C(F)(F)F)ccc2S1(=O)=O
15	CCCN(CC(=O)Nc1ccc(F)c(F)c1F)C(=O)Cn1c(=O)cnc2ccccc21
16	CCCN1CNC(=S)N(c2ccc(C)cc2C)C1

screen / no. | 9 | 10 | 11 | 12 | 13 | 14 | 15 | 16
VACV mCherry inh | i | i | -8% | -7% | i | -16%&-14% | i | i
Vaccinia Venus | -18% | -2% | -9% | -20% | -13% | -20%&-7% | -15% | 10%

17	Cc1cc(NC(=O)CSC2=NCCS2)no1
18	NC1=NC[C@H](Cc2ccc(O)cc2)N1CCc1cccc2ccccc12
19	COC(=O)c1ccccc1NC(=O)CNCCc1ccc(OC)c(OC)c1
20	CN(CCc1ccccn1)c1ccc([N+](=O)[O-])cn1
21	COc1ccc(C)cc1NC(=O)c1ccc2c(c1)nnn2C1CCCC1
22	CC(=O)N(Cc1ccc(Br)cc1)c1cccc(C)c1C
23	CSc1ncccc1C(=O)OCc1ccc(Br)cc1
24	COc1cc2nc(N3CCCN(C)CC3)nc(N3CCN(C)CC3)c2cc1OC

screen / no. | 17 | 18 | 19 | 20 | 21 | 22 | 23 | 24
VACV mCherry inh | -14% | -1% | 9% | -15% | -7% | -17% | -9% | -28%
Vaccinia Venus | -7% | -1% | 7% | -6% | -13% | -9% | -3% | ?

25	Cc1c(C)n(C(=O)CN2CCN(c3ccccc3)CC2)c2ccccc12
26	O=C(Cn1cnc2ccccc2c1=O)Nc1nnc(SCc2ccccc2)s1
27	COc1ccc(NC(=O)N2C3CCCC2CC(NC(=O)C2CC2)C3)cc1 (centres undefined)
28	CCc1nnc(NC(=O)C(=O)NCCOC(=O)c2ccccc2)s1
29	c1cc2c(cc1-n1cnnn1)OCO2
30	O=C1CN(C(=O)COC(=O)CCC(=O)c2ccc(Cl)cc2)c2ccccc2N1
31	CC(NC(=O)c1ccccc1NS(=O)(=O)c1ccc(CCC(=O)O)cc1)c1ccccc1 (centres undefined)
32	Cc1c(NC(=O)/C(C#N)=C/c2ccc(-c3cccc(Cl)c3)o2)c(=O)n(-c2ccccc2)n1C

screen / no. | 25 | 26 | 27 | 28 | 29 | 30 | 31 | 32
VACV mCherry inh | -19% | -6% | 3% | -14% | i | i | -21% | -19%
Vaccinia Venus | -11% | -8% | 4% | -7% | -4% | -1% | -11% | ?

33	O=C(CSc1nnc(-c2ccccc2)n1-c1ccccc1)NCc1ccco1
34	N=c1ncn(CC(O)CO)c2nc(N3CCOCC3)[nH]c12 (centres undefined)
35	CCOC(=O)C1CCN(C(=O)COC(=O)CCOc2ccc(C)cc2)CC1
36	CC(C)Cn1c(N)c(C(=O)COC(=O)CCNS(=O)(=O)c2ccccc2)c(=O)n(C)c1=O
37	O=C(c1n[nH]c(=O)c2ccccc12)N1CCN(c2ccc(F)cc2)CC1
38	Brc1ccc2nc(CSc3ncn[nH]3)cn2c1
39	COc1ccccc1OCC(=O)NCCSCc1ccccc1Cl
40	COc1cccc(CNc2ncnc3onc(C)c23)c1

screen / no. | 33 | 34 | 35 | 36 | 37 | 38 | 39 | 40
VACV mCherry inh | -12% | i | -7% | i | -14% | -25% | -20% | ?
Vaccinia Venus | -13% | -5% | -5% | -21% | -13% | -11% | -7% | -27%

41	Cc1cccc(C(=O)NCCC(=O)Nc2ccc(F)c([N+](=O)[O-])c2)c1
42	COc1ccc(NC(=S)N(CCN2CCOCC2)C2CCN(C(C)=O)CC2)cc1Cl
43	COc1ccc(NC(=O)c2ccc3c(c2)NC(=O)CS3)cc1S(=O)(=O)Nc1ccc(Br)cc1
44	Cc1c(C=C2C(=O)N(C)C(=S)N(C)C2=O)c2ccccc2n1CC(=O)NCC1CCCO1 (centres undefined)
45	CCc1cccc(C)c1NC(=O)CN1CCCN(Cc2ccccc2Cl)S1(=O)=O
46	O=C(Nc1ccc(-c2csc(Nc3cccc(C(F)(F)F)c3)n2)cc1)c1ccccc1
47	O=C(c1cccc(F)c1)N1CCN(Cc2ccc3c(c2)OCO3)CC1
48	Nc1cc(C(=O)O)ccc1N1CCCCCC1

screen / no. | 41 | 42 | 43 | 44 | 45 | 46 | 47 | 48
VACV mCherry inh | -32% | i | -23% | 1% | -7% | ? | i | -21%
Vaccinia Venus | -16% | -10% | ? | 36%[activator] | -10% | ? | -13% | -8%

49	COc1ccc(C(CNC(=O)C(C)(C)Oc2ccc(Cl)cc2)N2CCCCC2)cc1 (centres undefined)
50	O=C(COC(=O)/C=C/c1ccco1)NC1CCCCC1
51	COC(=O)CNC(c1ccccc1)c1cc(Br)ccc1NC(=O)OCc1ccccc1 (centres undefined)
52	COc1ccc(C(=O)NNC2=Nc3cccc4cccc2c34)cc1
53	FC(F)(F)C(F)(F)C(F)(F)c1nnc2ccc(N3CCOCC3)nn12
54	O=C(c1cccc(S(=O)(=O)N2CCc3ccccc32)c1)N1CCN(c2ccccn2)CC1
55	CC1(c2cccc3ccccc23)NC(=O)N(CC(=O)NC2CCS(=O)(=O)C2)C1=O (centres undefined)
56	CC1=CC(C)(C)N2C(=O)C3(C(C#N)=C(N)OC4=C3C(=O)CC(C)(C)C4)c3cc(C)cc1c32 (centres undefined)

screen / no. | 49 | 50 | 51 | 52 | 53 | 54 | 55 | 56
VACV mCherry inh | -20% | -3% | -13% | -7% | nt | ? | -11% | -14%
Vaccinia Venus | -16% | 3% | -7% | 11% | -22% | -5% | -3% | -23%

57	Cc1ccc(NC(=S)Nc2ccc(Br)cc2)cc1
58	S=c1[nH]nc(-c2cc(-c3ccsc3)n[nH]2)n1-c1cccc2ccccc12
59	CSc1cccc(NC(=S)N(CCC(C)C)C2CCN(C(C)=O)CC2)c1
60	COc1ccc(C(=O)COC(=O)CN2C(=O)C3C4CCC(C4)C3C2=O)cc1 (centres undefined)
61	CC(C)COC(=O)N1CCCC1C(=O)Nc1nccs1 (centres undefined)
62	COCOCCn1cc(CN2CCS(=O)(=O)N(Cc3ccc(-c4ccc(Cl)cc4)cc3)C(C)C2=O)nn1 (centres undefined)
63	CC(Sc1nc2ccccc2c(=O)n1C)C(=O)NC1CCCCC1C (centres undefined)
64	Cc1cccc(OCC(=O)Nc2ccc3nc(SCc4ccccc4)sc3c2)c1

screen / no. | 57 | 58 | 59 | 60 | 61 | 62 | 63 | 64
VACV mCherry inh | nt | ? | ? | -1% | -9% | i | i | ?
Vaccinia Venus | -21% | ? | -15% | -4% | 5% | ? | -14% | -18%

65	COc1ccc(/C=N/NC(=O)c2cc(-c3cccc(C)c3)nc3ccccc23)cc1O
66	O=C(Cc1ccc(Cl)cc1)NC(=S)Nc1ccccc1N1CCOCC1
67	Cc1ccc(C(=O)Oc2ccc(N3C(=O)CCC3=O)c(C)c2)cc1
68	O=C(NNC(=O)c1ccc(O)c(Cl)c1)c1cccc(S(=O)(=O)N2CCOCC2)c1
69	CC1CC(C)CN(CCCNC(=O)CN2C(=O)c3cccnc3Oc3ccccc32)C1 (centres undefined)
70	O=C1C(=Cc2cccs2)Oc2ccccc21
71	Cc1ccc(Cl)cc1NC(=O)N1CCC(CN2CCCCCC2)CC1
72	CC(=O)OC(C(=O)NC1CCCCC1)c1ccc(Cl)cc1 (centres undefined)

screen / no. | 65 | 66 | 67 | 68 | 69 | 70 | 71 | 72
VACV mCherry inh | ? | -11% | i | -12% | -12% | -16% | -14% | -15%
Vaccinia Venus | -2% | -9% | -8% | -2% | -11% | 9% | -13% | -18%

73	CNc1c(NS(=O)(=O)c2ccc(Cl)cc2)c(=O)oc2ccccc12
74	Cc1cc(N2CCCC2=O)cc(C)c1S(N)(=O)=O
75	O=C(NCc1cccs1)C1CCCN1C(=O)Nc1cccc(Cl)c1 (centres undefined)
76	CCN(CC(=O)Nc1c(F)cccc1F)C(=O)c1cccnc1SC
77	O=C(O)CCC(=O)Nc1ccc(Br)c(Cl)c1
78	CSc1ccccc1C(=O)Nc1ccccc1C
79	Cc1c(Cl)cccc1NC(=O)C1CCCN(C(=O)c2cnn(-c3ccccc3)c2-n2cccc2)C1 (centres undefined)
80	Clc1cccc(OCCOCCN2CCNCC2)c1Cl

screen / no. | 73 | 74 | 75 | 76 | 77 | 78 | 79 | 80
VACV mCherry inh | -24% | i | i | -16% | 1% | -3% | -16% | ?
Vaccinia Venus | -14% | -1% | -2% | -7% | -6% | -9% | -19% | -18%

# Full records, quoted from the list. Order of values: VACV mCherry inh, Vaccinia Venus
# O=C(NCc1cccs1)C1CCCN1C(=O)Nc1cccc(Cl)c1 (centres undefined) as listed: i, -2%
# Cc1c(Cl)cccc1NC(=O)C1CCCN(C(=O)c2cnn(-c3ccccc3)c2-n2cccc2)C1 (centres undefined) as listed: -16%, -19%
# CCN(CC(=O)Nc1c(F)cccc1F)C(=O)c1cccnc1SC as listed: -16%, -7%
# CNc1c(NS(=O)(=O)c2ccc(Cl)cc2)c(=O)oc2ccccc12 as listed: -24%, -14%
# O=C(O)CCC(=O)Nc1ccc(Br)c(Cl)c1 as listed: 1%, -6%

# Continued:
81	Cc1noc(C)c1S(=O)(=O)N1CCCC(C(=O)N2CCC(C)CC2)C1 (centres undefined)
82	CN(Cc1ccccc1)C(=O)CCn1c(=O)oc2ccccc21
83	O=C(CN1C(=O)C(=O)c2ccccc21)OCN1C(=O)c2ccccc2C1=O
84	Cc1sc(NC(=O)C2CC=CCC2C(=O)O)c(C(=O)OC(C)C)c1C (centres undefined)
85	CCN(CC)c1ccc(N2C(=NC(=O)C3CC3)SC3CS(=O)(=O)CC32)cc1 (centres undefined)
86	O=C(N/N=C/c1ccc(Cl)cc1)c1n[nH]c2c1CCCC2
87	Cc1cc2oc(=O)c(CC(=O)NCCc3ccccc3)c(C)c2c2occ(C(C)(C)C)c12
88	N#Cc1c(NC(=O)COC(=O)C2CC3C=CC2C3)oc(-c2ccccc2)c1-c1ccccc1 (centres undefined)
89	CCSc1cnn(-c2ccccc2)c(=O)c1SCC
90	CC(=O)Nc1cc[n+](CC(=O)c2ccc(Cl)cc2)cc1

screen / no. | 81 | 82 | 83 | 84 | 85 | 86 | 87 | 88 | 89 | 90
VACV mCherry inh | -22% | i | -7% | -16% | i | -12%[7.34 µM] | -15% | i | -22% | i
Vaccinia Venus | -12% | -11% | -9% | -4% | -24% | ? | -10% | -16% | ? | -14%
